# Screening results (PubChem)
# VDR inhibitor = vitamin D3 receptor (human) inhibition. VDR-SRC2-3 peptide fluorescence polarization, 2 h. P11473. AID 504847. Potency, µM, inactives show max response, negative = inhibition, hits mostly inhibitors. 400,000 compounds, 0.93% hits; active = well fitted inhibition curve with a large enough effect; inconclusive = small, poorly fitted or top-dose-only effect, or another doubt; inactive = no such curve, though single readings can be large or run the other way; also: series mostly up to about 120 µM
# Target sequence (P11473 whole entry, looked up): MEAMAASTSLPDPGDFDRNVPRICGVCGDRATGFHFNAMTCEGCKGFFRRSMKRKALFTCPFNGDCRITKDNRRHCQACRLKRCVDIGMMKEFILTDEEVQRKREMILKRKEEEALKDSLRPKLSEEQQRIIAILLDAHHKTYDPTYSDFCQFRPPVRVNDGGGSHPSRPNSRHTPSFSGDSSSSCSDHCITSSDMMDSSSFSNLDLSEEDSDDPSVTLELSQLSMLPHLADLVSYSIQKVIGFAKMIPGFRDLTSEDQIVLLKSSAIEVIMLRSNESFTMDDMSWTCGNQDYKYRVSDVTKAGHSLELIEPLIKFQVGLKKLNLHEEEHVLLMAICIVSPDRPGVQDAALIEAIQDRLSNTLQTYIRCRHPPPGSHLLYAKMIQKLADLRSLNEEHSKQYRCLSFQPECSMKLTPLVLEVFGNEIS
#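 The screen uses fluorescence polarization to detect compounds that interfere with recruitment of the SRC2-3 coactivator peptide to VDR; plates are read after 2 h at room temperature.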
# * hit, by the source's call; u = inconclusive; & = joins results of further samples. % is scaled to controls: 0 for no effect and ±100 for the full control effect; potency is read from the fitted curve at half-maximal effect. This is a subset; rates above refer to the full screens.
SMILES,VDR inhibitor
COC(=O)c1cn(CCOc2ccccc2)c2ccccc12,7%
CCOC(=O)C1=C(O)/C(=C/c2cc(OC)c(OC)c(OC)c2)N=C1C,1%
CCS(=O)(=O)C(=C(Nc1ccc(OC)cc1)Nc1ccc(OC)cc1)S(=O)(=O)CC,-7%
Cc1ccc(Cl)cc1N(C)C(=O)c1cn(C2CCCCC2)c(=O)c2c1c1ccccc1n2C,-5%
Cn1c(=O)n(C)c2cc(NC(=O)CSc3ccccc3)ccc21,-4%
CC(=O)N1CCc2c(sc(NC(=O)Cc3ccc(F)cc3)c2C(N)=O)C1,13%
COC(=O)c1ccc(C2c3c(oc4ccc(Cl)cc4c3=O)C(=O)N2CCN2CCOCC2)cc1 (configuration not stated),1%
COc1ccc(S(=O)(=O)N2CCN(C(=O)c3c(-c4ccccc4)noc3C)CC2)cc1,-8%
C#CCOCCOCCOCCNc1nc(N2CCN(C(=O)Cn3cc(CCCCN)nn3)CC2)nc(N2CCN(C(=O)Cn3cc(CCCCN)nn3)CC2)n1,3%
Cc1cc(NC(=O)c2noc3c2CCCC3)no1,-5%
Cc1cc(C)c(C(=O)COC(=O)c2c(C)noc2C)cc1C,-18%
CC(C)(C)C(=O)NCCCc1ccccc1,-11%
COc1cc(-c2nnc(SCC(=O)N3CCCC3)o2)cc(OC)c1OC,0%
CN(C)C(/C=C/Nc1cccc(Br)c1)=C(C#N)C#N,-6%
CSc1nnc(-c2ccc(S(=O)(=O)N3CCOCC3)cc2)n1CC1CCCO1 (configuration not stated),15%
CCOC(=O)c1sc(NC(=O)C(C)(C)C)cc1C,-9%
CN1CCN(C(=O)C2=C[C@H](c3ccc(C(F)(F)F)cc3)C[C@H](OCc3ccc(CO)cc3)O2)CC1,-5%
Cc1cccc2nc(-c3ccccc3)nc(N[C@@H](CO)c3ccccc3)c12,-15%
COc1ccccc1N1CCN(S(=O)(=O)c2ccc3c(c2)oc(=O)n3C)CC1,-7%&-15%
Cc1ccc(SCC(=O)NC(=O)c2ccccc2Br)c(C)c1,4%
Cn1c(C(=O)NCc2ccccc2Cl)cc2sc(Cl)cc21,5%
Cn1c(=O)c2c(nc(NC(Cc3ccccc3)C(=O)O)n2Cc2ccccc2)n(C)c1=O (configuration not stated),u
CCOC(=O)c1c(C)n(C)c2ccc(OCC(O)CNC(CC)CO)cc12 (configuration not stated),1%
Cc1ccc(NC(=O)c2ccc3c(c2)OCCO3)cc1S(=O)(=O)Nc1cccc(Cl)c1,-10%
Cc1ccccc1Cn1c2ccccc2c2cnn(CC(=O)NC3CCC(C)CC3)c(=O)c21 (configuration not stated),10%
O=C(NNC(=O)c1sc2cccc(Cl)c2c1Cl)NC1CCCCC1,11%
Cc1ccccc1N(Cc1nnc2n1CCCCC2)C(=O)Nc1ccccc1,-4%
CCOC(=O)/C=c1\s/c(=C\c2ccc(C#N)cc2)c(=O)n1CC(=O)NCc1ccco1,9%
CSc1nnc(-c2ccco2)c(-c2ccco2)n1,-4%
COc1c2c(c(C)c3c1C(=O)OC3)O[C@@]1(C)CC[C@@]3(O)C(C)(C)OC(=O)CC[C@]3(C)[C@H]1C2,-23%
CCNc1ccc(C(=O)OCC(=O)NC(C)c2ccccc2)cc1[N+](=O)[O-] (configuration not stated),-10%
Cn1c(SCC(=O)N2CCCC2=O)nc2ccccc21,-1%
O=C(Nc1ccccc1F)c1ccc2ncsc2c1,0%
Cc1ccc(-c2cc3nc4c(c(=O)n3[nH]2)CCCC4)cc1,-15%
COc1ccc(S(N)(=O)=O)cc1C(=O)NCCCN1CCN(c2ccc(C)cc2)CC1,18%
CCn1c(=O)c2sccc2n2c(CCCC(=O)N3CCN(c4ccc(OC)cc4)CC3)nnc12,9%
COc1ccc2cc(CCNC(=O)c3cc4ccccc4o3)c(=O)[nH]c2c1,-8%
Cc1cn2c(=O)c(C(=O)N3CCN(c4ccccc4)CC3)cnc2s1,2%
Cc1cc(NS(=O)(=O)c2ccc(NC(=O)COc3ccccc3Cl)cc2)no1,3%
Cn1c(=O)c2c(nc(NCCCO)n2CCc2ccccc2)n(C)c1=O,-1%

# 7 of the entries above in order of their number in VDR inhibitor, smallest number first:
SMILES,VDR inhibitor
COc1ccc(S(=O)(=O)N2CCN(C(=O)c3c(-c4ccccc4)noc3C)CC2)cc1,-8%
CCS(=O)(=O)C(=C(Nc1ccc(OC)cc1)Nc1ccc(OC)cc1)S(=O)(=O)CC,-7%
Cc1cc(NC(=O)c2noc3c2CCCC3)no1,-5%
Cn1c(SCC(=O)N2CCCC2=O)nc2ccccc21,-1%
CCOC(=O)C1=C(O)/C(=C/c2cc(OC)c(OC)c(OC)c2)N=C1C,1%
COC(=O)c1cn(CCOc2ccccc2)c2ccccc12,7%
COc1ccc(S(N)(=O)=O)cc1C(=O)NCCCN1CCN(c2ccc(C)cc2)CC1,18%

# Carrying on.
SMILES,VDR inhibitor
NCCCC[C@@H](C(=O)NCCCCCCCCCCC(=O)N1CCNCC1)n1cc(CCCC(=O)O)nn1,-9%
CN(C)c1ccc(Nc2cc(Cl)ncn2)cc1,7%
CCc1nc2c(nnn2Cc2ccc(F)cc2)c(=O)[nH]1,2%
Cc1ccc(C(=O)N2CCN(S(=O)(=O)c3ccc(C)c([N+](=O)[O-])c3)C2)cc1,2%
O=C(Cn1cnc2c(nnn2Cc2ccc(F)cc2)c1=O)Nc1ccccc1,8%
Fc1ccc2[nH]c3c(NCc4ccccc4)ncnc3c2c1,-1%
CCCC[C@H]1CCCO[C@@](C(=O)NCCN2CCOCC2)(C(F)(F)F)C1,-15%
NNc1nc2c(F)cc(F)cc2s1,0%
Cc1nnc(N2CCC(C(=O)NCCc3ccccc3Cl)CC2)c2nn(-c3ccccc3)c(C)c12,-4%
Cc1ccc(NC(=O)COC(=O)c2ccccc2-c2nc3ccccc3s2)c(C)c1,7%
CCOc1ccc(C(=O)NCCS(=O)(=O)N2CCN(c3ccccc3F)CC2)cc1OCC,8%
Cc1nn(C)c(C)c1CN(C)C(=O)c1cc2n(n1)C(C(F)(F)F)CC(c1cccs1)N2 (configuration not stated),10%
O=S1(=O)[C@H]2C[C@@H]3CC[C@]2(CN1Cc1cccc(F)c1)O3,-5%
COc1cc(C(=O)NNC(=O)c2ccccc2OCc2c(C)noc2C)cc(OC)c1OC,-9%
COc1cccc(CNC(=O)CCC2CCCN(C(=O)c3ccccc3N(C)C)C2)c1 (configuration not stated),6%
O=C(O)C[C@H]1c2ccc(C(F)(F)F)cc2S(=O)(=O)N1C1CCCCC1,-6%
CC(C)(O)C#Cc1ccc([C@@H]2C[C@H]3CN(c4ccccc4)C(=O)[C@]34CCCN24)s1,15%
CCCCCC(=O)Nc1cccc(C2=NOC3(C2)C[C@H](C(N)=O)N(C(=O)[C@H]2CCC(=O)N2)C3)c1 (some centres not stated),-3%
O=C(NC(=S)Nc1ccc2oc(=O)ccc2c1)c1cccc(F)c1,2%
CCOC(=O)c1ccccc1NC(=O)COC(=O)C(Cc1c[nH]c2ccccc12)NC(C)=O (configuration not stated),-12%
O=C(Nc1cc2c(cc1[N+](=O)[O-])OCCO2)c1cccnc1,-19%
CC(C)C(NC(=O)CN1C(=O)c2ccccc2C1=O)c1ccccc1 (configuration not stated),17%
CC(C)(C)c1cc(-c2n[nH]c(=S)n2-c2ccc(Cl)cc2)n[nH]1,u
CCC(C(=O)Nc1ccccc1)c1ccccc1 (configuration not stated),-5%
CC1(C)C(=O)OC(c2ccccc2)C(C)(C)C1=O (configuration not stated),u
CC(OC(=O)CCc1nc2ccccc2[nH]c1=O)c1ccccc1 (configuration not stated),-3%
Cc1cc(F)ccc1NC(=O)c1sc2nc(-c3cccs3)ccc2c1N,-23%
O=C(CCN1C(=O)/C(=C/c2ccc(F)cc2)SC1=S)Nc1cccnc1,-19%
O=C(CSc1ncnc2scc(-c3ccccc3)c12)N1CCN(c2ccccc2F)CC1,-13%
CCCCCNC(=O)c1ccc2c(c1)nc(C)n2-c1cccc(C)c1,-7%

# Looked up by compound from above, two records:
SMILES,VDR inhibitor
CC(C)C(NC(=O)CN1C(=O)c2ccccc2C1=O)c1ccccc1 (configuration not stated),17%
Cc1cc(F)ccc1NC(=O)c1sc2nc(-c3cccs3)ccc2c1N,-23%

# Further compounds:
SMILES,VDR inhibitor
CC1Cc2cc(S(=O)(=O)N3CCN(c4ccc(Cl)cc4)CC3)ccc2N1C(=O)C1CC1 (configuration not stated),-8%
Cc1cc(NC(=O)CSc2nc3c(sc4ccccc43)c(=O)n2CCc2ccccc2)n[nH]1,23%
COc1ccc(CC2(C)OC(c3ccncc3)=NN2C(C)=O)cc1 (configuration not stated),4%
COc1ccc(OC)c(C2C(C#N)=C(N)N(N(C)C)C3=C2C(=O)CC(C)(C)C3)c1 (configuration not stated),5%
Cc1c(C(=O)NCc2ccccc2Cl)sc2nc(-c3ccc(F)cc3)cn12,5%
CC(=O)c1cc(-c2ccc(F)cc2)n(CCC(=O)NC(C)(C)C)c1C,-3%
CN(C)c1ccc(N=Cc2ccco2)cc1,2µM*
COc1cc(NC(=O)C2CCN(S(=O)(=O)c3cccs3)CC2)cc(OC)c1,-2%
Cc1ccc(N2C(=O)CC(Sc3nc4ccccc4o3)C2=O)cc1Cl (configuration not stated),7%
CSc1nnc2[nH]c(=O)cc(C)n12,5%

# An excerpt from above in order of SMILES length, lowest first:
SMILES,VDR inhibitor
Cc1ccc(N2C(=O)CC(Sc3nc4ccccc4o3)C2=O)cc1Cl (configuration not stated),7%
Cc1c(C(=O)NCc2ccccc2Cl)sc2nc(-c3ccc(F)cc3)cn12,5%
COc1cc(NC(=O)C2CCN(S(=O)(=O)c3cccs3)CC2)cc(OC)c1,-2%

# The listing continues.
SMILES,VDR inhibitor
CCC1CCCCN1CCCn1c(=S)[nH]c2ccccc2c1=O (configuration not stated),1%
COc1ccc(Cl)cc1C(=O)OCC(=O)NC1CCCC(C)C1C (configuration not stated),10%
Cc1cc2ccccn2c1C(=O)c1cc([N+](=O)[O-])cc([N+](=O)[O-])c1,-3%
CS(=O)(=O)c1ccc(Cl)c(NC(=O)COC(=O)CCc2c[nH]c3ccccc23)c1,-14%
CC1CCCCCCC1OC(=O)c1ccccc1C(=O)O (configuration not stated),-21%
Cc1ccc2oc(Nc3nc(C)cc(C)n3)nc2c1,3%
Cn1cc(Cl)nc1C(O)c1ccccc1 (configuration not stated),4%
O=C(Cc1ccccc1)Nc1cccc(N2CCCC2)c1,-5%
CC(=O)c1c(C)[nH]c(C(=O)OCC(=O)Nc2ccccc2Cl)c1C,-9%
COc1ccc(NC(=O)CCn2cnnn2)cc1,7%
Cc1ccc(C(=O)Nc2ccon2)cc1S(=O)(=O)N1CCCCCC1,1%
CCc1noc(C)c1C(=O)OCC(=O)NCc1ccccc1OC,-1%
COc1ccc(N(CC(=O)NCCSCc2ccccc2Cl)S(C)(=O)=O)cc1Cl,-4%
O=Cc1ccc(Sc2ncccn2)o1,9%
CC(=O)Nc1ccc(NC(=O)c2cc(C)nn2-c2ccccc2)cc1,5%
O=C(CSc1nc2c([nH]c3ccccc32)c(=O)n1-c1ccccc1F)Nc1cccc(Cl)c1,13%
CC(C)CN1C(Nc2ccccc2)=NC[C@@H]1C,0%
COc1ccc(Cl)cc1NC(=S)N1CCCCCC1,-4%
Cc1cc(C)cc(NC(=O)COC(=O)c2cccc(S(=O)(=O)N3CCCCC3)c2)c1,-16%
COc1ccc(CCNC(=O)NCCc2c[nH]c3ccccc23)cc1OC,-10%
CCC(=O)Nc1cc(-c2nc3ncccc3o2)ccc1Cl,6%
CCC1CCCCN1S(=O)(=O)c1ccc(NC(=O)c2cccs2)cc1 (configuration not stated),-1%
CCCc1nc2sc(C(=O)OCC)c(N)c2c2c1COC(C)(C)C2,-1%
COc1ccccc1CC(=O)O/N=C(\N)c1cccc([N+](=O)[O-])c1,-10%
O=C(Cn1cc(SCc2ccc(C(F)(F)F)cc2)c2ccccc21)N1CCCCC1,3%
Cc1ccc(NC(=O)C/C(N)=N/OC(=O)c2ccccc2)cc1,0%
COc1ccc(S(=O)(=O)Nc2ccc(S(=O)(=O)N3CCCCC3)cc2)cc1OC,-3%
Cc1ccccc1S(=O)(=O)c1cc(C#N)c(=O)[nH]c1N,-20%
CCCc1nnc(NC(=O)CCCN2C(=O)c3ccccc3C2=O)s1,-2%
CC(=C1C(=O)c2ccccc2C1=O)N1CCN(c2ccc(F)cc2)CC1,-6%
CCOc1ccc(NC(=O)CSc2nnc(C3CC3)n2C2CC2)cc1,-7%
Nc1[nH][nH]c(=O)c1N=Nc1ccccc1,-14%
CCOc1ccc(C(=O)Nc2c3c(nn2C(C)(C)C)CSC3)cc1OCC,10%
COc1ccc(NC(=O)CCNS(=O)(=O)c2cc(Br)ccc2Br)cc1S(N)(=O)=O,-13%
Cc1ccc(SCC(=O)OCC(=O)N(C)CC(=O)Nc2ccc(F)cc2)cc1C,-14%
COc1ccccc1OCCn1cc(C(=O)O)c2ccccc21,8%
COc1cc2c(cc1NC(=O)c1ccc(C(C)(C)C)cc1)CCCC2,1%
CCC(=O)N1CCC(c2ccc(OC)cc2)=N1,-6%
COc1ccc(C(=O)Nc2ccc(C3(C#N)CCCC3)cc2)cc1OC,-3%
Cc1ccccc1NC1=C(Cl)C(=O)N(C2CCCCC2)C1=O,-16%

# Records listed so far shown as hits in VDR inhibitor:
SMILES,VDR inhibitor
CN(C)c1ccc(N=Cc2ccco2)cc1,2µM*
